# Source: PubChem BioAssay
# A488 autofl – A488 region autofluorescence | compound autofluorescence, A488 spectral region, dye equivalency; stronger effect = higher value | max dye equivalency, M | actives 0.1% (n = 59,000); active = above 10 nM dye equivalent; inconclusive = 1 to 10 nM; inactive = 1 nM or less; about half of its hits are not listed in these tables;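 also: highest value over a series up to 38 µM; compound alone in buffer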
#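 Read-out: relative fluorescence at 480/540 nm, expressed as Alexa 488 dye-equivalent concentration from a six-point A488 standard included per plate. Conditions: 100 mM Tris, pH 8.0; 15 min incubation, room temperature.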
# A647 autofl – compound autofluorescence in A647 spectral region. 59,000 tested, under 10 active. max dye-equivalent concentration, M. Compound fluorescence, A647 channel (570/671 nm), Tris buffer; active means above 1 µM dye equivalent; inconclusive means 0.1 to 1 µM; inactive means 0.1 µM or less;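 also: values scaled relative to a standard on each plate; highest value over a series up to 38 µM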
#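 Tris 100 mM pH 8.0; cpd + A647 stds pin-transferred; 15 min RT; CCD imager, ex 570/em 671. Output = A647-equivalent conc. per cpd conc.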
# TSHR ag – TSH receptor (human) agonism | AID 926 | P16473 | actives 0.48% (n = 73,000) | Potency, µM (series often up to 57.1 µM), for inactives: at the highest dose activation, hits mostly activators | HEK293-CNG-TSHR cells (CNG channel as cAMP sensor), membrane potential dye, cAMP; active = well fitted activation curve of enough size with the parental cells flat; inconclusive = any curve in the parental cells; inactive = parental cells flat and receptor cells flat or falling; also: potency is read from the fitted curve at half-maximal effect; % of control where 0% means no effect; weak receptor curves with flat parental cells got no call and are not listed
# Target sequence (P16473 whole entry, looked up): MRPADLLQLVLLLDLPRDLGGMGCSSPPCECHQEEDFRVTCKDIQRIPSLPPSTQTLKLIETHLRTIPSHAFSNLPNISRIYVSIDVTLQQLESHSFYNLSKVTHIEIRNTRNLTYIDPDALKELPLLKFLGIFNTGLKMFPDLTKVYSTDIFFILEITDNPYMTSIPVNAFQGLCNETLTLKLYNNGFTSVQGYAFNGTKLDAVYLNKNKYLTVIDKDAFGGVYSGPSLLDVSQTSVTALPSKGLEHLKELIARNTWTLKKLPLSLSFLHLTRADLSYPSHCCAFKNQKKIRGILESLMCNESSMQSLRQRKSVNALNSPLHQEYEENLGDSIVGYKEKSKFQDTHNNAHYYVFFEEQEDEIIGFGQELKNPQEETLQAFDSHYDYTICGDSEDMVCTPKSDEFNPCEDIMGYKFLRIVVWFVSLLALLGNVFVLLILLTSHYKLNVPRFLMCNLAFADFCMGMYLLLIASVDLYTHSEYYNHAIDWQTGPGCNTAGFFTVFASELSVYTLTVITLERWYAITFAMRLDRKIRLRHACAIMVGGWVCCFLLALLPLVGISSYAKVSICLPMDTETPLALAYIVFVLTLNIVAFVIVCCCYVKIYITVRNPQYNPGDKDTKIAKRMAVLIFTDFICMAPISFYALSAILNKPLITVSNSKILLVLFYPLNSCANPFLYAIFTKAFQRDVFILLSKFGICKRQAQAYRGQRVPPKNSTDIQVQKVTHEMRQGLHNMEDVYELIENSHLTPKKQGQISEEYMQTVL
#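 cAMP rise detected as CNG-channel membrane depolarization by fluorescent dye (emission 590 nm), 30 min after compound, following 60 min dye loading containing 100 uM RO 20-1724 at room temperature. Cells: TSHR/CNG HEK 293, with parental CNG HEK 293 as control.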
# Resorufin fluor – compounds fluorescent in resorufin spectral region. Compound fluorescence, resorufin region 547/598 nm, buffer; stronger effect = higher value. max dye-equivalent concentration, M. actives 0.04% (n = 59,000); active = above 10 nM dye equivalent; inconclusive = 1 to 10 nM; inactive = 1 nM or less; a few of its hits are not listed in these tables; also: highest value over a series up to 38 µM
#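 Compounds in 100 mM Tris buffer, pH 8.0, incubated 15 min at room temperature, then read with 547 nm excitation and 598 nm emission filters. Fluorescence was converted to dye-equivalent concentration using an on-plate six-point resorufin standard curve.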
# AID923 – qHTS Assay for Allosteric/Competitive Inhibitors of Caspase-1: Spectroscopic Profiling in AFC Spectral Region; compound fluorescence, AFC spectral region (405/520 nm); almost no hit is shown here; Potency, µM (top dose mostly 57.5 µM), without a hit: at the highest dose fluorescence increase, most hits filed as activators; actives 1.1% (n = 75,000); active = well fitted activation curve with a large enough effect; inconclusive = small, poorly fitted or top-dose-only effect;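 also: potency is read from the fitted curve at half-maximal effect; 0% is about no effect; scaled to a free AFC standard on each plate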
#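 Baseline compound fluorescence (AFC region, 405 nm ex/520 nm em) taken from the intercept of kinetic reads with 50 nM caspase-1 and 5 uM Ac-WEHD-AFC; normalized to an on-plate AFC standard curve; compounds titrated up to 57 uM.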
# * marks the source's active call; other numbers are inactive results; i = inactive; u = inconclusive; x = not tested or not shown; [ ] = remark or other dose. A portion of the library, so the mix of outcomes need not match the whole.
# Every second line gives: AID923, Resorufin fluor, A647 autofl, A488 autofl, TSHR ag
- O=C(Cc1c(O)c2ccccc2[nH]c1=O)NC1CCCCCCC1
  -0.4%, i, 4.1e-08, i, 13%
- Cc1ccc(S(=O)(=O)NCCN=C(CN2CCCC2)NS(=O)(=O)c2ccc(C)cc2)cc1
  6.9%, i, 1.4e-08, i, 11%
- Cn1c(COc2ccc3ccccc3c2)nnc1SCC(N)=O
  -0.9%, i, 1e-09, i, -6%
- Cc1ccc(NC(=O)C2(N(C(=O)Cn3nnnc3N)c3ccc(C)cc3)CCCCC2)cc1
  0.4%, i, 2.5e-08, i, 8%
- COc1ccc(-n2c(=O)c(-c3cccc(Cl)c3)nc3cncnc32)cc1
  2.7%, i, 3.9e-09, i, -12%
- CCOC(=O)c1c(C)c(C(=O)NC(C)COC)c(C)n1CC (configuration not stated)
  -2.2%, i, 2.2e-09, i, 1%[11.4 µM]
- Cc1ccoc1C(=O)NCc1occc1C(=O)O
  -1.0%, x, x, x, -13%
- O=C(Nc1cccc(Cl)c1)c1ccncc1
  -1.4%, i, 8.2e-09, i, -4%
- CCOc1ccc(N2C(=O)c3cccnc3C2Nc2ccc(C)cc2)cc1 (configuration not stated)
  -0.6%, i, 4.8e-09, i, 13%
- CCCS(=O)(=O)N1CCCC(C(=O)NCCN(CC)CC)C1 (configuration not stated)
  0.7%, i, 2.5e-09, i, 4%
- Cn1c(C(=O)N2CCCC(C(=O)N3CCN(C(=O)c4ccco4)CC3)C2)cc2sccc21 (configuration not stated)
  -0.5%, x, x, x, -4%
- c1ccc(N2CCCCC2)c(NC2=NCCC2)c1
  0.5%, i, 2.3e-09, i, 11%
- NS(=O)(=O)c1ccc(CNC(=O)NC23CC4CC(CC(C4)C2)C3)cc1
  -2.0%, i, 2.1e-09, i, 1%
- O=C(CCn1c(=O)oc2ccccc21)N1CCCCCC1
  -1.2%, i, 1.4e-09, i, 1%
- O=C(CCn1c(=O)oc2ccccc21)NCCCN1CCN(c2ccc(F)cc2)CC1
  0.1%, i, 5.9e-09, i, 4%
- CCn1c(SCc2nc3ccccc3[nH]2)nnc1-c1cccs1
  -0.4%, i, 1.6e-08, i, 15%
- COc1ccc(OCC2CNC(=O)O2)cc1 (configuration not stated)
  -0.3%, i, 1e-09, i, -7%
- CCOC(=O)CNC(=O)c1nn(-c2ccc(OCC)cc2)c(=O)c2ccccc12
  -0.6%, i, 2.4e-09, i, 7%[11.4 µM]
- COc1ccc2sc(NC(=O)c3ccco3)nc2c1
  1.7%, i, 1.3e-08, i, -5%
- Cc1cc(C)cc(N2CC(c3nc4ccccc4n3C)CC2=O)c1 (configuration not stated)
  -2.2%, x, x, x, 0%
- COCCn1c(SCc2cccnc2)nnc1-c1ccco1
  0.2%, i, 1e-09, i, -11%
- COCCNc1nnc(SCC(=O)N2CCN(S(=O)(=O)c3ccccc3)CC2)s1
  -1.2%, i, 1e-09, i, 11%
- COc1ccc(NC(=O)CC2CCCCC2)cc1OC
  0.0%, x, x, x, -1%[11.4 µM]
- CCOC(=O)C1CCN(Cc2cnc(NC(=O)OC)s2)CC1
  0.2%, i, 8.1e-09, i, -2%[11.4 µM]
- O=C(NC1CCCC1)C1CCCN(S(=O)(=O)c2cnc[nH]2)C1 (configuration not stated)
  2.7%, x, x, x, 5%
- c1cncc(-c2ccc3ncnc(N4CCNCC4)c3c2)c1
  -0.3%, i, 1e-09, i, 7%
- COC(=O)c1c(-c2cccnc2)csc1NC(=O)c1cc(C)on1
  0.9%, i, 1e-09, i, -3%
- Cc1cc(NC(=O)CSc2ccc(-c3nc4cc(C)c(C)cc4[nH]3)cn2)no1
  -0.6%, i, 5.4e-09, i, -8%[11.4 µM]
- NCCC(=O)N[C@@H](Cc1cnc[nH]1)C(=O)O
  0.4%, i, 1e-09, i, -3%
- COC(=O)CSc1nnc(-c2cccs2)n1-c1ccc(Cl)cc1
  0.2%, i, 7.8e-09, i, 17%
- CCOC(=O)C1(CC)NC(c2ccco2)C2C(=O)N(c3ccc(C)cc3)C(=O)C21 (configuration not stated)
  2.9%, i, 1e-09, i, 1%
- Cc1nc2ncnn2c(N2CCN(C(c3ccccc3)c3ccccc3)CC2)c1C
  -1.9%, i, 2.6e-08, i, u
- CCOC(=O)C1=C(C)NC2=C(C(=O)CC(c3ccc(OC)c(OC)c3)C2)C1c1ccc(C)o1 (configuration not stated)
  3.4%, i, 1e-09, i, 1%
- COc1ccc(-n2nnc3c(=O)n(Cc4cc(C)ccc4C)cnc32)cc1
  0.3%, i, 1e-09, i, u
- CCN(CC)C(=O)c1sc(NC(=O)Cc2cccs2)c(C#N)c1C
  0.0%, i, 6.7e-09, i, 6%
- COc1ccc2[nH]c(=O)c(CN(CCCN3CCOCC3)C(=O)NCc3ccccc3)cc2c1
  2.0%, i, 2.1e-08, i, 2%
- CN(Cc1ccccc1)C(=O)c1ccc2c(c1)OCO2
  0.7%, i, 2.2e-08, i, 8%
- CC(Sc1nc(N2CCOCC2)c2c(c1C#N)CC(C)(C)OC2)C(=O)Nc1ccccc1 (configuration not stated)
  3.6%, i, 1.7e-08, i, 13%
- CN1CCc2c(sc3c2c(=O)n(-c2ccccc2)c2nnc(SCc4ccc(F)cc4)n32)C1
  0.9%, i, 6.3e-09, i, -1%
- O=C(OCc1nnc(-c2ccc(Cl)cc2)o1)c1ccc(=O)n(Cc2ccccc2)n1
  0.0%, i, 3.3e-08, i, 14%

# 3 of these compounds, set out differently:
Cc1nc2ncnn2c(N2CCN(C(c3ccccc3)c3ccccc3)CC2)c1C
  AID923: -1.9%; Resorufin fluor: i; A647 autofl: 2.6e-08; A488 autofl: i; TSHR ag: u

CCOC(=O)C1=C(C)NC2=C(C(=O)CC(c3ccc(OC)c(OC)c3)C2)C1c1ccc(C)o1 (configuration not stated)
  AID923: 3.4%; Resorufin fluor: i; A647 autofl: 1e-09; A488 autofl: i; TSHR ag: 1%

COc1ccc(-n2nnc3c(=O)n(Cc4cc(C)ccc4C)cnc32)cc1
  AID923: 0.3%; Resorufin fluor: i; A647 autofl: 1e-09; A488 autofl: i; TSHR ag: u

# The list goes on:
# Every second line gives: AID923, Resorufin fluor, A647 autofl, A488 autofl, TSHR ag
- Cc1ccc(C)c(Cn2nnc3c(=O)[nH]c(C4CCCN(C(=O)CC(C)C)C4)nc32)c1 (configuration not stated)
  -2.1%, i, 1.5e-08, i, 4%
- Cn1c(=O)c2[nH]c(CN(Cc3ccccc3)Cc3ccccc3)nc2n(C)c1=O
  -0.3%, i, 1e-09, i, u
- O=c1cc(-c2ccccc2)nc(N2CCN(Cc3ccccc3)CC2)[nH]1
  -1.3%, i, 1e-09, i, -1%
- Cc1cc2nc([C@H](C)C(=O)c3ccc(Cl)cc3)c(=O)[nH]c2cc1C
  3.7%[11.5 µM], i, 1e-09, i, 3%[11.4 µM]
- Cc1c(NC(=O)c2nn(C)c(=O)c3ccccc23)c(=O)n(-c2ccccc2)n1C
  -2.5%, i, 5.5e-09, i, 7%
- O=C(CCN1C(=O)c2ccncc2C1=O)Nc1ccc2c(c1)OCCO2
  1.1%, i, 7.6e-09, i, -5%
- c1ccc(C2=NCCCN2)cc1
  0.1%, i, 5.4e-09, i, u
- O=C(NCc1ccco1)c1ccc(S(=O)(=O)c2cccc(S(=O)(=O)N3CCOCC3)c2)cc1
  1.0%, x, x, x, -2%
- CC(C)[C@H](NC(=O)Nc1ccc2c(c1)OCCO2)C(=O)O
  -1.5%, i, 1e-09, i, 0%
- CN1C[C@@H](O)[C@@H](O)[C@@H](O)[C@@H]1CO
  x, i, 1e-09, i, -3%
- NC(=O)c1ccc(F)cc1
  -3.4%, i, 1.2e-08, i, -3%
- COc1ccc(C(=O)OC(C)CN2CCN(C)CC2)cc1OC (configuration not stated)
  x, i, 5.3e-08, i, x
- COc1ccc(NC(=O)c2c(SC)nsc2SC)cc1
  1.4%, i, 3.2e-08, i, 13%
- CC[N+](CC)(CC)CC
  -4.3%, i, 1e-08, i, u
- COc1ccc(NC(=O)N2CCCC2C(=O)Nc2ccc(C)cc2)cc1 (configuration not stated)
  -0.2%, i, 1e-09, i, 5%
- Cc1sc2nc(SCC(=O)NCc3ccco3)n(C)c(=O)c2c1C
  1.3%, x, x, x, 3%
- CC(C)CC(NC(N)=O)C(=O)OCC(=O)NC(=O)NC1CCCC1 (configuration not stated)
  0.3%, i, 3.3e-09, i, -4%[11.4 µM]
- O=C(Nc1ncc2c(n1)CC(c1ccco1)CC2=O)c1ccc(Cl)cc1 (configuration not stated)
  3.5%, i, 1e-09, i, 17%
- CCOC(=O)N1CCN(S(=O)(=O)c2cc(Cl)ccc2Cl)CC1
  -1.4%, i, 6.8e-09, i, -7%[11.4 µM]
- Cn1c(-c2ccc3ccccc3n2)nc2cnccc21
  19%, i, 1e-09, i, 22%
- O=C(c1ccco1)N1CCCSC1=Nc1ccccc1
  -0.1%, i, 5.9e-09, i, 18%
- O=C(/C=C\c1ccccc1)c1ccccc1O
  -0.6%[11.5 µM], x, x, x, -5%[11.4 µM]
- c1ccc(-c2ccccc2-c2nc(-c3cccnc3)no2)cc1
  -0.5%, i, 1e-09, i, u
- COC(=O)CN(C#N)c1nc(OC)nc(N(C)C)n1
  -2.0%, i, 1e-09, i, 0%
- C#CCCCO/N=C1/C[C@@H](O)[C@@H](O)[C@@H]2[C@@H]3C(=O)N(Cc4ccc5c(c4)OCO5)C(=O)[C@H]3CC[C@@H]12
  -1.4%[11.5 µM], x, x, x, 18%[11.4 µM]
- OCCNCCCOc1cccc(Cl)c1Cl
  -1.9%, x, x, x, u
- CCc1cn([C@H]2C[C@H](O)[C@@H](CO)O2)c(=O)[nH]c1=O
  x, i, 1e-09, i, x
- O=C(NCc1ccc2c(c1)OCO2)c1cccc(C(=O)NCc2ccc3c(c2)OCO3)c1
  1.5%, x, x, x, 21%
- CCc1ncc(C(O)c2cccc(OC)c2OC)n1C (configuration not stated)
  0.9%, i, 1e-09, i, -1%
- C#CCCCO/N=C1/C[C@@H](O)[C@@H](O)[C@@H]2[C@@H]3C(=O)N(C(C)(C)C)C(=O)[C@H]3CC[C@@H]12
  -0.7%[11.5 µM], x, x, x, 6%[11.4 µM]
- Cc1ccc(-c2nn(C)c(=O)c3ccccc23)cc1CNC(=O)CSc1nc2ccccc2o1
  x, i, 1.7e-08, i, x
- COc1ccc(NC(=O)C2CCN(C(=O)NCc3ccccc3)CC2)cc1
  2.3%, i, 1e-09, i, -5%
- Cc1cc(C(=O)CN(Cc2ccc(F)cc2)S(=O)(=O)c2ccc3c(c2)OCCO3)c(C)n1C
  0.7%, i, 1e-09, i, 12%
- CN1CCN(c2oc(-c3ccco3)nc2S(=O)(=O)c2ccccc2)CC1
  -1.8%, i, 2.1e-08, i, 1%
- CCOc1ccc(C(O)c2nccn2Cc2ccccc2)cc1 (configuration not stated)
  1.8%, x, x, x, 9%
- CCOC(=O)N1CCN(C(=O)c2cc(S(=O)(=O)N3CCCC3)cn2C)CC1
  0.8%, i, 1.6e-08, i, -1%
- CC(C)(C)C(=O)NC1CCN(S(=O)(=O)c2ccccc2F)CC1
  0.6%, i, 6.2e-09, i, 5%
- CC(C)CN(CC(C)C)C(=O)C12CCC(C)(C(=O)C1)C2(C)C (configuration not stated)
  -2.0%, i, 4.6e-08, i, 12%
- CC(C)OC(=O)CSc1nnc(-c2ccco2)n1N
  1.7%, i, 1e-09, i, 2%
- COc1cc(CN2CC(C)OC(C)C2)cc(OC)c1 (configuration not stated)
  2.4%, x, x, x, 0%
- O=c1[nH]c2c(c3c1CCCC3)CCCC2
  -5.3%, i, 5.6e-09, i, 0%
- O=S(=O)(c1ccccc1)N1CCN(S(=O)(=O)c2ccccc2)c2ccccc21
  -2.2%[11.5 µM], i, 1e-09, i, 19%[11.4 µM]
- CCCCCC(=O)c1cc(CC(C(=O)OC)C(=O)OC)cc2cc(OC)c(OC)cc12
  -0.1%[11.5 µM], x, x, x, 7%[11.4 µM]
- CCCNC(=O)CS(=O)(=O)Cc1nc(-c2ccccc2C)oc1C
  2.4%, x, x, x, u
